Source: PubChem
gsp ag = qHTS for Agonist of gsp, the Etiologic Mutation Responsible for Fibrous Dysplasia/McCune-Albright Syndrome: qHTS; gsp mutant cells, cAMP HTRF, 30 min; control for the full effect not named in the record; Potency, µM (doses to about 76.9 µM), for inactives: at the top dose activation (cAMP increase), most hits filed as activators; actives 0.13% (n = 340,000); active = well fitted activation curve with a large enough effect; inconclusive = small, poorly fitted or top-dose-only effect, or another doubt; inactive = no such curve, though single readings can be large or run the other way; cell line not stated here;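 further: phosphodiesterase inhibitor Ro 20-1724 added with compounds to block cAMP breakdown; potency means the concentration at half of the fitted maximal effect; nearly all actives have a fitted effect of over 60% in size; about a fifth of the inactives were tested at one dose only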
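Cells in DMEM/10% FBS with G418 were pretreated with compounds in DMSO plus […] (300 uM stock) for 30 min at 37C. cAMP was measured by HTRF (cAMP-d2 plus anti-cAMP antibody-K) after 30 min at room temperature.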
gsp antag = qHTS for Antagonists of gsp, the Etiologic Mutation Responsible for Fibrous Dysplasia/McCune-Albright Syndrome: qHTS | gsp-mutant cells, cAMP HTRF, 30 min; control for the full effect not named in the record | Potency, µM (highest dose often 76.9 µM), for inactives: at the highest dose activity change, negative = inhibition, usual class: inhibitors | actives 0.4% (n = 340,000) | AID 624288, 2012; active = falling curve of any shape with a large fitted effect; inconclusive = falling curve, mostly with a smaller effect; inactive = flat or rising curve; cell line not stated here;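 further: intracellular cAMP measured with PDE inhibitor Ro 20-1724 present during compound exposure; potency means the concentration at half of the fitted maximal effect; on the % scale 0 is the no-effect control and ±100 the full control effect; nearly all actives have a fitted effect of over 65% in size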
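Cells in G418 medium, seeded 16-24 h, 37C; buffer exchange to DPBS + 1 mM CaCl2, 0.5 mM MgCl2, 0.05% BSA; cpds in DMSO + […] (300 uM stock), 30 min 37C; HTRF cAMP detection.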
CtBP-E1A inh = qHTS Assay for Inhibitors of the CtBP/E1A Interaction; CtBP / adenovirus E1A interaction (AlphaScreen); AlphaScreen GST-E1A/His-CtBP binding, 1536-well; stronger effect = lower value; control for the full effect not named in the record; activity change, % (concentration not given with the values); actives 0.49% (n = 340,000); AID 651724, 2012; in the data active means activity change below about -65%; inconclusive means about -30% to -65%; inactive means above about -30%; further: on the % scale 0 is the no-effect control and ±100 the full control effect
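GST-E1A and His-tagged CtBP (125 nM each as 5X stock) were preincubated with pin-transferred compound for 2 h at 37 °C in the dark, then glutathione donor and nickel acceptor beads were added for 1 h before AlphaScreen reading.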
Six1-Eya2 blk = qHTS Assay for Inhibitors of the Six1/Eya2 Interaction | Homeobox protein SIX1 (Homo sapiens) + Protein phosphatase EYA2 (Homo sapiens), … | AlphaScreen GST-Six1/His-Eya2 binding, biochemical; stronger effect = lower value; control for the full effect not named in the record | activity change, % (concentration not given with the values) | actives 0.56% (n = 360,000) | AID 651725, 2012; in the data active = activity change below about -65%; inconclusive = about -30% to -65%; inactive = above about -30%; further: on the % scale 0 is the no-effect control and ±100 the full control effect
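Homogeneous AlphaScreen proximity assay pairing GST-Six1 with His-tagged Eya2 (added as 5X mix: 250 nM and 500 nM) in 50 mM Tris pH 8.0, 300 mM NaCl, 1 mM TCEP. Glutathione donor and nickel acceptor beads; 1 h, 37 °C, dark.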
D2 PAM = Beta-Arrestin HTS for Positive Allosteric Modulators of the Human D2 Dopamine Receptor: Potentiators; potentiation, % (no concentration beside the values); actives 0.23% (n = 360,000); DiscoveRx D2 beta-arrestin cells, luminescence, 90 min; 100% = 57 uM dopamine signal; AID 624464, 2012; D(2) dopamine receptor (Homo sapiens), P14416; active = potentiation of 50% or more; inconclusive = 30% to 50%; inactive = 30% or less;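 further: compound concentration not given in the record; tested on top of an EC20 dose of dopamine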
Target sequence (P14416 whole entry, looked up): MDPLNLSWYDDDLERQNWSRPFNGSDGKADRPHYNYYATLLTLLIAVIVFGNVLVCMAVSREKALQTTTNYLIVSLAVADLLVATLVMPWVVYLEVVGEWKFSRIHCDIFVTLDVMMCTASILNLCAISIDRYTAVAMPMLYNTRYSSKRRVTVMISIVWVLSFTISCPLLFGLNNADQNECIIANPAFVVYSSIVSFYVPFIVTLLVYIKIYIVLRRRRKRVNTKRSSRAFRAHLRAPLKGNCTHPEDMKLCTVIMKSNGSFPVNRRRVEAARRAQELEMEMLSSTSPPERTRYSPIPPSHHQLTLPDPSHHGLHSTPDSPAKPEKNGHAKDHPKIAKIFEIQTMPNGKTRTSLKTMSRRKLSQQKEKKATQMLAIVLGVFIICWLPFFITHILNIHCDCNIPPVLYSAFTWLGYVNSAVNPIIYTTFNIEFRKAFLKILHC
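PathHunter beta-arrestin assay in DiscoveRx D2 cells. Compounds were added with an EC20 of dopamine (50 nM final) for 90 min at 37 deg C. Luminescence was read 1 h after detection reagent, with 57 uM dopamine as the EC100 control.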
D2 ag = Beta-Arrestin HTS for Positive Allosteric Modulators of the Human D2 Dopamine Receptor: Agonists; D(2) dopamine receptor (Homo sapiens), P14416; DiscoveRx PathHunter D2 beta-arrestin, luminescence, 90 min; 100% = 57 uM dopamine signal; activation, % (test concentration not listed); actives 0.084% (n = 360,000); in the data active = activation above about 40%; inconclusive = about 15% to 40%; inactive = below about 15%; further: compound concentration not given in the record; the text of the record calls up to 30% inactive
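Agonist mode: compounds alone added to overnight-plated D2 PathHunter cells for 90 min at 37 C, with 57 uM final dopamine (EC100) defining full response. Beta-arrestin recruitment detected by chemiluminescent reagent, read after 1 h at ambient temperature.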
The depositor's hits bear a star; u = inconclusive; x = not tested or not shown; [ ] = another dose, or the depositor's remark.

SMILES	gsp ag	gsp antag	CtBP-E1A inh	Six1-Eya2 blk	D2 PAM	D2 ag
COc1ccc2[nH]c(=O)c(CN(C(=O)c3ccncc3)C(C)(C)C)cc2c1	-33%[inhibitor]	0%	18	15	7	0.1
CCCC(c1nnnn1C1CCCC1)N1CCN(C(=O)c2ccco2)CC1 (stereo not drawn)	4%	-2%[15.4 µM]	3	10	15	-3.1
CC(C)C1Oc2ccccc2N(CC(=O)N(Cc2ccccn2)C2CC2)C1=O (stereo not drawn)	-38%[inhibitor]	1%	6	-2	-3	0.2
CCOc1ccc(C2C(C#N)=C(N)N(N(C)C)C3=C2C(=O)CCC3)cc1 (stereo not drawn)	u	-1%	-4	0	-2	6.6
O=C(COc1ccc(F)cc1Cl)Nc1cccc(S(=O)(=O)N2CCCCCC2)c1	-6%	-7%	-10	6	4	-8.7
Cc1sc2ncnc(N3CCC(C(=O)NCC(=O)Nc4ccc(F)c(F)c4)CC3)c2c1C	-8%	40µM*	-21	-23	-28	-0.7
COc1cc(/C=C/C(=O)N2c3ccccc3Sc3ccc(C(F)(F)F)cc32)cc(OC)c1OC	-18%	-1%	13	-15	-14	-6.9
COc1ccc(CC(=O)OC(C)C(=O)c2ccc(C)cc2)cc1 (stereo not drawn)	-17%	4%	44	57	-2	-6.2
CCCCCc1ccc(CC(=O)N2CCOCC2)cc1	8%	16%	9	2	-1	2.3
CC(C)(C)C1CCC(OC(=O)CN2CCCCC2)CC1 (stereo not drawn)	-15%[15.4 µM]	12%	8	-1	-8	0.6
Cn1nc(C(=O)OCCN2C(=O)c3ccccc3C2=O)c2ccccc2c1=O	30%	10%	5	3	-23	-1.7
COC(=O)C1=C(C)NC2=C(C(=O)c3ccccc32)C1c1cccc(OC)c1 (stereo not drawn)	5%	6%	x	-13	-27	-9.2

Ordered by SMILES length (ascending): part of the list above.
SMILES	gsp ag	gsp antag	CtBP-E1A inh	Six1-Eya2 blk	D2 PAM	D2 ag
COc1ccc(CC(=O)OC(C)C(=O)c2ccc(C)cc2)cc1 (stereo not drawn)	-17%	4%	44	57	-2	-6.2
Cn1nc(C(=O)OCCN2C(=O)c3ccccc3C2=O)c2ccccc2c1=O	30%	10%	5	3	-23	-1.7
COc1ccc2[nH]c(=O)c(CN(C(=O)c3ccncc3)C(C)(C)C)cc2c1	-33%[inhibitor]	0%	18	15	7	0.1
COc1cc(/C=C/C(=O)N2c3ccccc3Sc3ccc(C(F)(F)F)cc32)cc(OC)c1OC	-18%	-1%	13	-15	-14	-6.9

More records follow.
SMILES	gsp ag	gsp antag	CtBP-E1A inh	Six1-Eya2 blk	D2 PAM	D2 ag
COc1ccc(C2=NCC(CSc3nccc(=O)[nH]3)S2)cc1 (stereo not drawn)	15%	u	-1	-3	-4	-1.9
NS(=O)(=O)c1ccc(CCNc2ccnc3cc(Cl)ccc23)cc1	-5%[15.4 µM]	9%	-7	-16	-2	1.5
CCOc1cc(NC(=O)c2ccco2)c(OCC)cc1NC(=O)CCC(=O)NCc1cccnc1	-4%	-8%	3	-3	29	4.8
CN(CC(=O)Nc1ccc(F)c(F)c1F)C(=O)C1=NN(c2ccccc2)C(=O)CC1	2%	-12%	2	1	-4	-2.7
O=C(Cc1cccs1)Nc1nnc(-c2ccccc2)s1	8%	7%	1	2	-2	-3.0
Cc1c(NC(=S)NC(=O)c2cccc(Cl)c2)c(=O)n(-c2ccccc2)n1C	-17%	-1%	x	0	14	1.8
CCN1CCCC1CNC(=O)Cn1nc(C)n2nc(-c3ccccc3)cc2c1=O (stereo not drawn)	19%	17%	-9	5	-20	-3.0
OC(CNCc1cccc(Br)c1)c1ccccc1 (stereo not drawn)	0%[15.4 µM]	8%	6	2	-12	0.0
Cc1ccc(C(=O)c2cc3ccccc3o2)cc1	29%	-10%	15	37	-14	-1.1
CC(=O)Nc1cccc2cc(S(=O)(=O)O)ccc12	x	x	7	-4	-5	-3.4
Cn1sc(NC(=O)c2ccccc2Cl)nc1=O	-33%[inhibitor]	u	-1	6	4	4.4
CSc1ncc(C(=O)Nc2cccc(S(N)(=O)=O)c2)n1-c1ccccc1	-3%[15.4 µM]	0%	-3	3	-2	-2.3
Cc1cccc(C(=O)N2CCCC(N3CCN(c4ccccc4)CC3)C2)n1 (stereo not drawn)	8%	-1%	2	0	-15	3.0
COc1ccc(/C=C2/SC(=S)N(CCC(=O)N3CCN(C)CC3)C2=O)cc1	0%[15.4 µM]	-3%	-11	-2	-6	-2.7
COc1ccccc1N1CCN(CC(O)COc2ccc3c(c2)OCO3)CC1 (stereo not drawn)	13%	4%	-1	-8	-10	-5.4
Nc1nccnc1C(=O)OCC(=O)NCCc1ccc(Cl)cc1	25%	13%	-18	-13	-8	-9.8
COc1ccc(O)c(/C=N/NC(=O)c2cc(=O)[nH]c3ccccc23)c1	15%	7%	u	-92*	-12	-2.2
CC(Oc1ccc(Br)cc1)C(=O)NCC(c1cccs1)N1CCOCC1 (stereo not drawn)	5%[15.4 µM]	1%	5	5	-5	-3.3
COc1ccccc1C(=O)NC(=S)Nc1cccnc1Cl	u	-3%	8	-4	0	-0.8
CC(CN1CCOCC1)OC(=O)c1cccc(Br)c1 (stereo not drawn)	u	14%	9	-24	-1	-4.4
O=C(/C=C/c1ccc(Br)o1)NCCCN1CCOCC1	-25%	-2%	x	6	-3	-3.1
O=C(c1ccccc1)c1cc2ccccc2oc1=O	1%	0%	8	0	-8	8.6
O=C(Nc1cc(Cl)ccc1O)C1CCCO1 (stereo not drawn)	-33%	7%	-1	-8	-11	-0.7
CCOc1ccccc1N(C)C(=O)CCS(=O)(=O)c1ccc2c(c1)NC(=O)CO2	6%	-7%	7	6	-6	-3.0
CCOC(=O)C1(Cc2ccccc2Cl)CCN(C(=O)c2cc(C)on2)CC1	0%	-12%	-2	10	-4	1.7
COc1cc(-c2c(-c3cc(OC)c(OC)c(OC)c3)noc2C)ccc1F	u	9%	1	-4	-6	-1.6
C[C@@H]1CN([C@H](C)CO)C(=O)CCCn2cc(nn2)CO[C@H]1CN(C)S(=O)(=O)c1ccc(F)cc1	x	x	-5	12	-7	-4.6
O=C(COc1ccc(Cl)cc1)N1CCN(S(=O)(=O)c2cc(F)ccc2F)CC1	-16%	x	-18	4	-6	-2.3
Cc1cc(OCC(=O)NCC2CCC(C(=O)O)CC2)c2c(C)c(C)c(=O)oc2c1 (stereo not drawn)	x	-1%	8	8	-26	-6.4
Cc1c(Cl)cccc1NC(=O)C1CC2CCC1C2 (stereo not drawn)	10%	-9%	6	1	-9	-1.9
CC(C)C(=O)Nc1ccc(C(=O)Nc2ccc(S(=O)(=O)N3CCOCC3)cc2)cc1	9%	-6%	-7	3	-2	-5.1
CCc1nc2c(OCc3cccc(OC)c3)cccn2c1N(C)C(=O)c1ccccc1F	x	x	-10	-1	-7	-4.4
C=CCOC(=O)C(=O)/C=C/c1coc2ccccc2c1=O	x	-8%	4	-5	-35	2.2
COc1ccc(C)cc1Nc1nc(N)c2ccccc2n1	-39%[inhibitor]	-6%	-4	-6	-11	-2.1
COc1ccccc1C(c1nnnn1C(C)C)N1CCN(C(=O)c2ccco2)CC1 (stereo not drawn)	4%	-4%	-3	-2	-3	6.7
CC(C)N(Cc1ccccc1)C(=O)CCS(=O)(=O)c1ccc2c(c1)oc(=O)n2C	7%	4%	-4	3	-4	-2.5
COC(=O)c1cn(C(=O)c2cc(C)cc(C)c2)c2ccccc12	5%[15.4 µM]	-4%	x	1	-5	-4.1
O=S1(=O)CC/C(=N\Nc2ccc(F)cc2)c2ccsc21	-11%	-13%	4	-15	-12	-0.7
COCCCN1Cc2cccc(C(=O)O)c2C1=O	9%	5%	11	4	-3	-7.4
CN1CCN(NC(=O)c2ccc(Cl)cc2Cl)CC1	-49%[inhibitor]	20%	-7	13	-5	-2.6
COc1ccccc1NC(=O)CC1C(=O)NCCN1C(=O)Nc1ccccc1 (stereo not drawn)	-11%	7%	-2	0	-16	-2.3
COc1ccc(NC(=S)NC2CCN(Cc3ccccc3)CC2)cc1OC	-3%	7%	-29	-4	-15	1.1
Cc1oc(-c2ccccc2)nc1C(=O)Nc1nccs1	2%	-5%	0	-1	-1	-2.0
COc1cccc(OC)c1-c1nn2c(-c3ccco3)nnc2s1	u	4%	8	0	17	2.0
OCC1OC(Oc2cccc3ccccc23)C(O)C(O)C1O (stereo not drawn)	-23%	12%	9	6	-1	-2.9
COC(=O)C1CCN(C(=O)CN2C(=O)NC(CCc3ccccc3)C2=O)CC1 (stereo not drawn)	-40%[inhibitor]	8%	5	1	-6	-3.0
COc1ccc(-c2nn(-c3ccccc3)cc2/C=C/C(=O)OCC(=O)Nc2ccc(C#N)cc2)cc1	28%	-17%	8	1	11	-6.9
CC(C)C(C(=O)NC1CCCC1)N(Cc1ccco1)C(=O)CNS(=O)(=O)c1ccccc1 (stereo not drawn)	0%[15.4 µM]	11%	11	-7	-2	-2.0
CCc1nc(SCc2cc(=O)[nH]c3ccccc23)c2c(C)c(C)sc2n1	20%	-11%	0	0	-5	4.2
Cc1noc(C)c1COc1ccccc1C(=O)NCCc1ccccc1	15%	5%	0	2	-21	-4.7
CCn1ccc2cc(OC)ccc2c1=S	u	28%	-5	-15	-10	-6.3
O=C(CSc1nnc(CNC(=O)c2cccs2)o1)NCCc1ccccc1	-7%	-4%	10	0	-13	-3.2
CC1CCCN(C(=O)CN2C(=O)CSc3ccc(S(=O)(=O)N4CCOCC4)cc32)C1 (stereo not drawn)	19%	6%	0	4	-7	1.8
Cc1nn(-c2ccccc2)c2nc(=O)n(-c3ccccc3)cc12	3%	-8%	u	u	-2	-1.1
Cc1ccc(NS(=O)(=O)c2ccc(OCC(=O)Nc3cccc([N+](=O)[O-])c3)c(C)c2)cc1	24%	-6%	-11	-13	-12	-0.9
Cc1c(NC(=O)c2cc3c(=O)n4ccccc4nc3s2)c(=O)n(-c2ccccc2)n1C	14%	9%	5	-1	-10	-0.3
O=c1c(N2CCOCC2)coc2ccccc12	5%	14%	x	17	-6	-6.2
Cc1n[nH]c(C)c1CCNC(=O)C1CCC(=O)N(CCc2cccc(F)c2)C1 (stereo not drawn)	-8%	5%	-2	10	u	3.9
C[C@H](CO)N1C[C@H](C)[C@@H](CN(C)C(=O)Nc2ccc(C(F)(F)F)cc2)Oc2c(NC(=O)Cc3ccccc3)cccc2C1=O	x	u	-1	1	-6	-1.8
